# A1 inh: inhibitors of A1 | MEF A1-2A-BIM cells, caspase-Glo luminescence, 3 h; percent of clofoctol signal, DMSO as zero | caspase activation, % (test concentration not listed) | 21,000 tested, 0.51% active;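 active means most replicate scores above 10, or exactly half above 10 with mean activity above 10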;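 further: effector caspase 3 and 7 activity cleaving a DEVD luciferin substrate; 50 nL library stock added to about 30 µL; numbers are from one replicate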
# BJeLR viab HTS: BJeLR cell viability reduction | 30,000 tested, 0.64% active | viability loss activity score, % (no concentration beside the values) | BJeLR fibroblasts viability, CellTiterGlo ATP luminescence, 48 h; HRASV12, hTERT and SV40 LT/ST transformed; in the data active means viability loss activity score above about 50%; about a fifth of its hits are not listed in these tables;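 further: higher score means fewer live cells and less ATP luminescence; stock transfer was 50 or 100 nL into about 30 µL; 0% = vehicle wells and 100% = a reference killing control; one replicate is shown; the record names a cut of 85%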
# An asterisk follows results filed as active; . = no result given.
# Each structure is followed by: BJeLR viab HTS	A1 inh
C[C@H]1CN([C@@H](C)CO)C(=O)c2cccc(NC(=O)NC3CCCCC3)c2O[C@@H]1CN(C)S(C)(=O)=O
→ -1.2	.
Cc1cccc(N2CCCn3c2nc2c3c(=O)n(C)c(=O)n2C)c1
→ -1.9	0.3
COCCN(C(=S)Nc1c(C)cccc1C)C(C)c1cccnc1 (stereo not drawn)
→ 3.1	0.7
O=C(NC1CCCCC1)c1ccc(Cn2c(=S)[nH]c3ccccc3c2=O)cc1
→ -5.6	-0.2
COc1ccc(S(=O)(=O)N(C)C[C@@H]2Oc3ccc(NC(=O)Cn4cnnn4)cc3C(=O)N([C@H](C)CO)C[C@H]2C)cc1
→ -0.8	-1.0
CC(=O)OC[C@H]1O[C@@H](Oc2c(-c3ccc(O)c(O)c3)oc3cc(O)cc(O)c3c2=O)[C@H](O)[C@@H](O)[C@@H]1O
→ -5.1	0.8
Cc1ccc(C(=O)C2C(=O)N(c3ccccc3)C(=O)N(c3ccccc3)C2=O)cc1
→ 1.3	-0.3
COc1ccc(S(=O)(=O)Nc2cccc3c2O[C@H](CN(C)C(=O)NC2CCCCC2)[C@@H](C)CN([C@@H](C)CO)C3=O)cc1
→ -0.4	.
C[C@@H]1CN([C@H](C)CO)C(=O)c2cc(NS(=O)(=O)c3ccc(Cl)cc3)ccc2O[C@H]1CN(C)C(=O)Nc1ccc2c(c1)OCO2
→ 1.0	-0.1
CSc1nc2c(Cl)cccc2c2c1c(=O)n(Cc1ccc(Cl)cc1)n2C
→ -3.1	0.7
CNC[C@H]1Oc2c(NC(=O)c3ccncc3)cccc2C(=O)N([C@H](C)CO)C[C@H]1C
→ -1.0	.
COc1ccc(OCc2nc(C#N)c(N3CCOCC3)o2)cc1
→ -2.1	0.4
FC(F)(F)c1nc(NCc2ccccc2)nc2c1CCCCC2
→ 1.4	.
Cc1cc(C(=O)Nc2cccc3c2O[C@H](CN(C)Cc2ccc(C(F)(F)F)cc2)[C@@H](C)CN([C@@H](C)CO)C3=O)n(C)n1
→ 1.5	.
C[C@H](CO)N1C[C@H](C)[C@H](CN(C)S(=O)(=O)c2ccccc2)Oc2ccc(NC(=O)Nc3ccc(C(F)(F)F)cc3)cc2C1=O
→ 2.8	0.9
O=C(O)c1cccc(-c2ccc(/C=c3/sc4nc5ccccc5n4c3=O)o2)c1
→ 2.1	.
C[C@@H]1CN([C@H](C)CO)C(=O)c2cccc(NC(=O)c3ccc(-c4nccs4)cc3)c2O[C@@H]1CN(C)Cc1ccc(-c2ccccc2)cc1
→ 18.5	.
CCS(=O)(=O)N1CCC(C(=O)NCc2ccc(F)cc2Cl)CC1
→ 2.9	0.6
C[C@H](CO)N1C[C@H](C)[C@@H](CN(C)S(=O)(=O)c2cccs2)Oc2c(NC(=O)NC3CCCCC3)cccc2C1=O
→ 0.0	.
CNC[C@H]1Oc2c(NC(=O)C3CC3)cccc2C(=O)N([C@H](C)CO)C[C@H]1C
→ -0.5	.
CCCn1c(=O)ccn(-c2ccccc2C)c1=O
→ 2.4	2.0
CCN(C1=NC2CS(=O)(=O)CC2S1)c1ccc(OC)cc1 (stereo not drawn)
→ -2.8	0.0
Cc1noc(C)c1NC(=O)N(C)C[C@@H]1Oc2ccc(NC(=O)CCCCCC(=O)Nc3ccccc3N)cc2C(=O)N([C@H](C)CO)C[C@H]1C
→ -8.7	.
CCOC(=O)c1cc(NC(=O)C2C3C=CC(O3)C2C(=O)O)cc(C(=O)OCC)c1 (stereo not drawn)
→ -4.1	2.0
FC(F)(F)c1ccc(CSc2nccc(-c3cccnc3)n2)cc1
→ -1.3	-1.7
Cc1onc(-c2c(F)cccc2Cl)c1C(=O)N1CC(Oc2ccc(Cl)cc2)C1
→ 3.2	0.0
Cc1cc(=O)oc2ccc(OCC(=O)N3CCOCC3)cc12
→ 0.7	0.6
Cc1noc(-c2ccccc2)c1NC(=O)Nc1ccccc1
→ 4.4	0.5
S=C(NCC1CC1)Nc1ccc(Cl)cc1
→ 4.4	-0.9
C[C@@H]1CN([C@@H](C)CO)C(=O)c2cccc(NS(=O)(=O)c3cn(C)cn3)c2O[C@H]1CN(C)C(=O)Nc1ccccc1
→ 0.5	.

# Whole records from above. Screens in order: BJeLR viab HTS | A1 inh
# C[C@@H]1CN([C@@H](C)CO)C(=O)c2cccc(NS(=O)(=O)c3cn(C)cn3)c2O[C@H]1CN(C)C(=O)Nc1ccccc1 across the screens: 0.5 | .
# Cc1onc(-c2c(F)cccc2Cl)c1C(=O)N1CC(Oc2ccc(Cl)cc2)C1 across the screens: 3.2 | 0.0
# COc1ccc(OCc2nc(C#N)c(N3CCOCC3)o2)cc1 across the screens: -2.1 | 0.4
# FC(F)(F)c1ccc(CSc2nccc(-c3cccnc3)n2)cc1 across the screens: -1.3 | -1.7
# C[C@@H]1CN([C@H](C)CO)C(=O)c2cc(NS(=O)(=O)c3ccc(Cl)cc3)ccc2O[C@H]1CN(C)C(=O)Nc1ccc2c(c1)OCO2 across the screens: 1.0 | -0.1

# (further entries)
# Each structure is followed by: BJeLR viab HTS	A1 inh
C[C@@H]1CN([C@@H](C)CO)C(=O)c2cc(NC(=O)Cn3cnnn3)ccc2O[C@H]1CN(C)C(=O)Nc1cccc2ccccc12
→ 0.8	-0.2
COc1ccccc1/C=C/C1C(C(=O)OCC(C)C)=C(C)N=C2SCCC(=O)N21 (stereo not drawn)
→ 6.4	1.2
COC(=O)c1cc(=O)n2ccccc2c1C#N
→ -0.2	-0.6
CN(Cc1ccccc1)S(=O)(=O)c1ccc2c(c1)CCN2C(=O)C1CC1
→ -1.5	.
COc1ccc(NC(=O)OCC23COCN2COC3)cc1
→ 1.6	0.1
Cc1noc(C)c1NC(=O)N(C)C[C@H]1Oc2c(NS(=O)(=O)c3cccs3)cccc2C(=O)N([C@@H](C)CO)C[C@H]1C
→ 2.3	.
Cc1[nH]c2ccccc2c1CN1CCC(Cc2ccccc2)CC1
→ -2.9	0.9
C[C@@H]1CN([C@@H](C)CO)C(=O)c2cccc(NS(C)(=O)=O)c2O[C@@H]1CN(C)C(=O)NC1CCCCC1
→ -8.9	.
C[C@H](CO)N1C[C@H](C)[C@H](CN(C)S(=O)(=O)c2ccc(Cl)cc2)Oc2c(NC(=O)Nc3cccc4ccccc34)cccc2C1=O
→ 1.3	.
C[C@@H]1CN([C@@H](C)CO)C(=O)c2cccc(NC(=O)Nc3ccc4c(c3)OCO4)c2O[C@@H]1CN(C)S(=O)(=O)c1ccccc1
→ 0.9	.
COc1ccc(NC(=O)N(C)C[C@H]2Oc3ccc(NS(=O)(=O)c4ccccc4)cc3C(=O)N([C@@H](C)CO)C[C@H]2C)cc1
→ 5.5	-0.2
CSc1sc(C(=O)Sc2ccccc2)cc1S(=O)(=O)C(C)C
→ -3.3	1.1
COC(=O)c1c(/N=C/c2c(O)n(Cc3ccccc3)c(=O)[nH]c2=O)sc2c1CCCC2
→ -4.6	1.6
CNC[C@H]1Oc2ccc(NS(=O)(=O)c3ccc(OC)cc3)cc2C(=O)N([C@H](C)CO)C[C@H]1C
→ -3.5	0.1
C[C@@H]1CN([C@H](C)CO)C(=O)c2cccc(NC(=O)C3CCOCC3)c2O[C@H]1CN(C)Cc1ccc(Oc2ccccc2)cc1
→ -0.3	.
CCC1(c2ccccc2)NC(=S)N(c2ccccc2)N1 (stereo not drawn)
→ 17.3	0.6
CC(=O)Nc1ccc(Nc2c3c4c(cccc4[nH]c2=O)C(=O)c2ccccc2-3)cc1
→ 59.2*	4.8
C=CCSCC1Nc2cc(Cl)c(S(N)(=O)=O)cc2S(=O)(=O)N1 (stereo not drawn)
→ -4.1	0.0
CCC(C)(C)C(=O)NCc1ccc2c(c1)OCO2
→ -1.8	0.4
CNC(=O)CCc1cc2ccccc2[nH]1
→ -1.3	0.7
O=S(=O)(Cc1noc(-c2ccc(OC(F)(F)F)cc2)n1)Cc1ccco1
→ -4.4	0.1
CCOC(=O)c1ccc(Nc2cc(C)nc(C)c2C(=O)OCC)cc1
→ 0.8	.
Cc1cc(O)c2c(c1)C(=O)c1cc(O)cc(O)c1C2=O
→ 0.3	-5.9
CSc1cccc(NC(=O)c2ccc(CN3CCOCC3)cc2)c1
→ 10.8	-3.1
COc1ccc(C(=O)On2c(-c3ccccc3)cc3ccccc32)cc1
→ -2.2	-0.3
Fc1ccc(-c2nc(-c3ccc(C(F)(F)F)cc3)no2)c(Cl)c1
→ -1.7	0.5
C=C(C)C(=O)O[C@H]1[C@H]2C(=C)C(=O)O[C@@H]2C[C@@H](C)/C=C/C(=O)[C@](C)(O)[C@@H]1OC(=O)C(=C)C
→ 71.6*	2.3
Cc1cc(C)c2c(=O)n(CC(=O)NCCc3ccc(Cl)cc3)sc2n1
→ 0.1	-0.8
C=C1C(=O)O[C@@H]2/C=C(/CO)CC/C=C(/C=O)C[C@@H](O)[C@@H]12
→ 3.2	0.9
COc1cc(O)c(CC=C(C)C)c(O)c1C(=O)CCc1ccc(O)cc1
→ -15.2	-0.6
COc1ccc(CN(C)C[C@@H]2Oc3c(NS(=O)(=O)c4ccccc4)cccc3C(=O)N([C@@H](C)CO)C[C@@H]2C)cc1
→ -2.8	.
O=S(=O)(NCC1CCCO1)c1ccc(Br)cc1 (stereo not drawn)
→ -3.9	2.2
CCC(C)Sc1nc2ccccc2c(=O)[nH]1 (stereo not drawn)
→ 0.5	0.6
Cc1ccc2nc(C(F)(F)F)[nH]c2c1
→ 7.6	-2.1
C=C[C@H]1[C@H](O[C@@H]2O[C@H](CO)[C@@H](O)[C@H](O)[C@H]2O)OC=C2C(=O)N3Cc4c([nH]c5ccccc5c4=O)[C@@H]3C[C@H]21
→ 4.1	-0.2
C[C@@H]1CN([C@@H](C)CO)C(=O)c2cc(NC(=O)CCCN(C)C)ccc2O[C@H]1CN(C)C(=O)NC1CCCCC1
→ -6.3	-0.2
COC(=O)C1=C[C@@H](O)[C@@H](O)[C@H](O[C@@H]2O[C@H](COC(=O)/C=C/c3ccccc3)[C@@H](O)[C@H](O)[C@H]2O)C1
→ 4.9	0.7
O=C1C2(c3ccccc3)CN(CCCO)CC1(c1ccccc1)CN(CCCO)C2
→ 7.5	.
CC(C)c1ccc2c(c1)C(O)CC1C(C)(CO)CCCC21C (stereo not drawn)
→ 0.2	-0.5
CC(C)=CC(=O)CC(O)(c1ccccc1)c1ccccc1
→ 1.0	0.4
CCOC(=O)c1ccc2c(c1)c(C)c(C)n2Cc1ccccc1
→ -0.3	0.4
Cc1noc(C)c1S(=O)(=O)Nc1cccc2c1O[C@H](CN(C)C(=O)Nc1ccc3c(c1)OCO3)[C@H](C)CN([C@H](C)CO)C2=O
→ -2.1	.
O=C(Nc1ccc2c(c1)OCCO2)c1ccc2nccnc2c1
→ -3.6	-6.2
Cc1cc(S(=O)(=O)N2CCC(NC(=O)Cc3ccccc3)CC2)c(Cl)cc1Cl
→ 2.7	-0.2
C[C@H](CO)N1C[C@H](C)[C@H](CN(C)CC2CCCCC2)Oc2ccc(NC(=O)CCC(F)(F)F)cc2C1=O
→ 4.7	-0.6
COc1ccc2c(c1)c1ncn(CCc3ccc(Cl)cc3)c(=O)c1n2C
→ 0.2	0.4
Cc1csc(NC(=O)c2ccccc2C(=O)O)c1-c1nc2ccccc2s1
→ -8.5	.
Cc1ccc(C)c(N(C)C(=O)c2cc3c(s2)-c2ccccc2SC3)c1
→ 3.1	0.6
C[C@H](CO)N1C[C@H](C)[C@H](CN(C)C(=O)Nc2cccc3ccccc23)Oc2ccc(NC(=O)CCN3CCOCC3)cc2C1=O
→ 2.0	-1.2
S=C(Nc1ccc(CN2CCOCC2)cc1)Nc1ccccc1Cl
→ 1.1	.
O=C(COc1ccc2ccccc2c1)Nc1c2c(nn1-c1ccc(F)cc1)CS(=O)(=O)C2
→ -2.4	-0.1
C[C@@H]1CN([C@H](C)CO)C(=O)c2cccc(NC(=O)c3cnccn3)c2O[C@H]1CN(C)C(=O)NC1CCCCC1
→ 3.1	.
COC(CNC(=O)Cn1ncc2c(=O)oc3ccccc3c21)OC
→ -1.0	0.0
CCOc1ccc(S(=O)(=O)N(CC(=O)NCc2ccccc2)c2ccccc2)cc1
→ 10.7	1.6
C[C@@H]1CN([C@@H](C)CO)C(=O)c2cccc(NC(=O)Nc3ccccc3)c2O[C@H]1CN(C)C(=O)NC1CCCCC1
→ 20.7	.
Cc1noc(C)c1NC(=O)N(C)C[C@H]1Oc2ccc(NS(=O)(=O)c3ccc(F)cc3)cc2C(=O)N([C@@H](C)CO)C[C@H]1C
→ 1.5	0.1
O=C(CC1SC(N2N=C(c3ccccc3)CC2c2ccccc2)=NC1=O)Nc1ccccc1 (stereo not drawn)
→ 3.1	.
Cc1cc(NC(=O)C(C)n2sc3ccccc3c2=O)ccc1Br (stereo not drawn)
→ 2.9	0.0
Cc1ccc(S(=O)(=O)c2nc(-c3ccco3)oc2SCc2ccccc2F)cc1
→ 3.0	.
Nc1nc2ccccc2n1CCN1CCCCC1
→ 1.5	-0.2

# (further entries)
# Each structure is followed by: BJeLR viab HTS	A1 inh
CNC[C@H]1Oc2ccc(NS(=O)(=O)c3ccccc3)cc2C(=O)N([C@@H](C)CO)C[C@H]1C
→ -1.9	0.2
Cc1ccc(S(=O)(=O)N(C)C[C@@H]2Oc3ccc(NS(=O)(=O)c4cccs4)cc3C(=O)N([C@@H](C)CO)C[C@H]2C)cc1
→ -3.7	0.1
CCOC(=O)c1ccccc1NC(=S)N(C)Cc1ccccc1
→ -6.9	.
C[C@H]1CN([C@@H](C)CO)C(=O)c2cc(NC(=O)CCC(F)(F)F)ccc2O[C@@H]1CN(C)C(=O)Nc1ccc(F)cc1
→ 2.2	0.2
C=CCN1C(=O)CSC1=Nc1ccc(O)cc1
→ -9.2	1.7

# Pulled by structure from the list above, two records:
# Each structure is followed by: BJeLR viab HTS	A1 inh
COCCN(C(=S)Nc1c(C)cccc1C)C(C)c1cccnc1 (stereo not drawn)
→ 3.1	0.7
Cc1cc(NC(=O)C(C)n2sc3ccccc3c2=O)ccc1Br (stereo not drawn)
→ 2.9	0.0

# Some of the compounds tested; count on the stated rates, not on these rows.
